# RecA splice inh: inhibitors of M. tuberculosis RecA intein splicing | P9WHJ3 | cell-free RecA intein splicing, fluorescence | inhibition, %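 (about 9 µM by stock and volumes)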 | 290,000 tested, 0.75% active | AID 2221; in the data active means inhibition above about 30%; inconclusive means no clear call, values can overlap the other calls;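 further: 0% = vehicle wells and 100% = reference inhibitor control wells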
# Target sequence (P9WHJ3 whole entry, looked up, canonical isoform): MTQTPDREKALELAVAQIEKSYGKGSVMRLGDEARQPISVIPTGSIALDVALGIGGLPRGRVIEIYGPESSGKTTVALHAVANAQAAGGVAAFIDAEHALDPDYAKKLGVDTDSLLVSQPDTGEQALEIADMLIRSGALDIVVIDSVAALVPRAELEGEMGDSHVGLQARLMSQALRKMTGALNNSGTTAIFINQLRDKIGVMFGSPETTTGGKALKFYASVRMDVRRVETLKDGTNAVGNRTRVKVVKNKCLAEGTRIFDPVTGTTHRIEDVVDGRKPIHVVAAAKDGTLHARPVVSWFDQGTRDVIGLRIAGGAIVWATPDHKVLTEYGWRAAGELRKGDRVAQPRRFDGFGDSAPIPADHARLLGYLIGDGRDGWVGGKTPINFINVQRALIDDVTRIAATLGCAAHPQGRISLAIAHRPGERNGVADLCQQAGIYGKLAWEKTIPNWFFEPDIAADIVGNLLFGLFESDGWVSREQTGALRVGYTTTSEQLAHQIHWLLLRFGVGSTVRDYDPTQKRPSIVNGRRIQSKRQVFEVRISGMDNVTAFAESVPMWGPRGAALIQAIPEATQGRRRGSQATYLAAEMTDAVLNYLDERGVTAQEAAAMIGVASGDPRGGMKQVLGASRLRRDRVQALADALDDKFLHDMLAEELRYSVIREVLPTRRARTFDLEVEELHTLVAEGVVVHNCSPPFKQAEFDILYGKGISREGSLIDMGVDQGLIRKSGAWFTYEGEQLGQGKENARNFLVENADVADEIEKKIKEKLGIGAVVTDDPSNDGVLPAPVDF
# Mtb H37Rv: M. tuberculosis H37Rv growth inhibitors, H37Rv strain (AID 1626). M. tuberculosis H37Rv growth inhibition; higher % means a stronger effect. one-dose inhibition, % at 10 µM; IC50 in µM for titrated hits. 220,000 tested, 0.95% active;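 active means confirmed in a dose series; inconclusive means inhibition above 80% but not taken into the dose series; inactive means below 80% or under 30% at every dose of the series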;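 further: bacteria incubated seven days before Alamar blue readout; 0% = bacteria only wells and 100% = bacteria with antibiotic wells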
# Mtb betalactam: beta-lactam sensitization of Mtb H37Rv | M. tuberculosis H37Rv growth with meropenem, percent inhibition; hits of this screen are not shown here | 330,000 tested, 0.27% active | inhibition, % at 25 µM;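 active means about 74% or more and at least 40 points above the plate without the antibiotic, then above 30% in a dose series; inconclusive means first-round hits that could not be retested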;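 further: growth measured after seven days incubation then overnight dye step; 0% = bacteria only wells and 100% = bacteria with antibiotic; twin plates without the antibiotic show which effects depend on it; some results filed as inactive read as strong as hits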
# Arbovirus inh: blocks arbovirus infection; inhibition, % at 10 µM; arbovirus infection cell-based antiviral screen; 200,000 tested, 0.37% active;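 active means inhibition from about 30%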;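 further: bluetongue infection of BSR cells; cell survival read as ATP light after 72 h; 0% = infected wells without compound and 100% = uninfected wells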
# YopH inh: inhibitors of Yersinia enterocolitica YopH tyrosine phosphatase; fluorescence Ex485/Em525; inhibition, %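 (about 10 µM by stock and volumes)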; 140,000 tested, 0.16% active;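 active means inhibition of 50% or more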;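 further: controls were vehicle for no effect and minimum signal wells for full effect; inactives centre near -20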
# Arbovirus inh repeat: recorded beside Arbovirus inh, whose call it bears; inhibition, %; measured here: 10K subset replicate screen; many hits read low in the repeat;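 first of two repeat runs on a subset; 0% = infected and 100% = uninfected wells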
# * = called active by the depositor; ? = inconclusive; · = not tested or not shown. Only part of the results is shown; rates above refer to the full screens.
SMILES,RecA splice inh,Mtb H37Rv,Mtb betalactam,Arbovirus inh,YopH inh,others
CC(C)CCNC(=O)c1onc(CSc2ccc(F)c(F)c2)c1C(=O)NCCC(C)C,0.5,5%,-6,·,·,
Cc1ccc([N+](=O)[O-])cc1S(=O)(=O)Nc1ccc(OCC(=O)N2CCOCC2)cc1,-2.1,·,-2,·,·,
O=C(COc1cccc2c1CCN(Cc1ccc(Cl)cc1)C2=O)N1CCOCC1,-0.3,4%,-5,17,·,
C=CCNC(=O)Nc1ccc(Cl)cn1,0.5,-4%,-6,5,-4,
Cc1ccc(NC(=O)Cn2nnc(C(=O)NCc3cccs3)c2N)cc1,-3.9,-2%,-11,-3,2,
Cc1ccc2cc(C)c(N3CCN(c4ccc(F)cc4)CC3)nc2c1,2.3,·,-4,·,·,
COc1cccc(NC(=O)OCCN2CCN(Cc3ccccc3)CCC2=O)c1,-1.9,-4%,-3,11,-40,
CCCc1cc(=O)[nH]c(SCC(=O)c2c(N)n(CC(C)C)c(=O)n(C)c2=O)n1,7.1,·,-6,·,·,
NC(N)=NC1=NC(=O)/C(=C/c2ccccc2-n2cccn2)S1,-0.5,5%,5,-3,·,
Cc1[nH]c2ccccc2c1C(=O)CN1CCCC(C)C1 (configuration not stated),-2.5,·,2,·,·,
O=C(NCCN1CCOCC1)c1cn(-c2ccccc2)nc1-c1cccs1,-1.4,·,-11,2,0,
CN(C)CCOc1ccc2c(c1)Sc1ccccc1CC2=O,-6.6,1%,?,-11,-20,
COc1ccccc1CC(=O)NNC(=O)c1ccco1,0.6,·,-2,·,·,
Cn1c2ccc(CC(=O)O)cc2c2cc(CC(=O)O)ccc21,1.0,-10%,6,4,-24,Arbovirus inh repeat=-1
COCCNC(=O)CCSc1nc(-c2ccc(OC)cc2)cc(C(F)(F)F)n1,1.5,1%,2,-5,-21,
Cc1ccccc1OCCN1C(=O)c2ccccc2C1=O,2.8,1%,0,12,0,
CC(C)CC(=O)N=C1SC2CS(=O)(=O)CC2N1Cc1ccccc1 (configuration not stated),1.3,0%,-6,-15,-1,
O=c1o[nH]c(-c2ccccc2)c1-c1ccccc1,4.0,·,-3,·,·,
CCOc1ccc(NC(=O)NC2CCCc3ccccc32)cc1 (configuration not stated),-2.3,·,-7,·,·,
N#CCC(=O)Nc1ccc(C(=O)OCC(=O)c2ccc3c(c2)OCO3)cc1,-2.1,·,-3,·,·,

# 7 entries drawn at random from those above:
SMILES,RecA splice inh,Mtb H37Rv,Mtb betalactam,Arbovirus inh,YopH inh,others
COc1ccccc1CC(=O)NNC(=O)c1ccco1,0.6,·,-2,·,·,
N#CCC(=O)Nc1ccc(C(=O)OCC(=O)c2ccc3c(c2)OCO3)cc1,-2.1,·,-3,·,·,
Cc1ccccc1OCCN1C(=O)c2ccccc2C1=O,2.8,1%,0,12,0,
COCCNC(=O)CCSc1nc(-c2ccc(OC)cc2)cc(C(F)(F)F)n1,1.5,1%,2,-5,-21,
CN(C)CCOc1ccc2c(c1)Sc1ccccc1CC2=O,-6.6,1%,?,-11,-20,
O=C(NCCN1CCOCC1)c1cn(-c2ccccc2)nc1-c1cccs1,-1.4,·,-11,2,0,
Cn1c2ccc(CC(=O)O)cc2c2cc(CC(=O)O)ccc21,1.0,-10%,6,4,-24,Arbovirus inh repeat=-1

# (cont.)
SMILES,RecA splice inh,Mtb H37Rv,Mtb betalactam,Arbovirus inh,YopH inh,others
COc1ccc(S(=O)(=O)N2CCN(C3CC4CCC3C4)CC2)cc1 (configuration not stated),0.0,·,-1,·,·,
Fc1ccc(-c2cc(C(F)(F)F)nc(NCC3CCCO3)n2)cc1 (configuration not stated),4.5,10%,9,-10,-7,
CC1(C)CC(=O)C(N=Nc2cc3c(cc2[N+](=O)[O-])OCCO3)=C(O)C1,-4.2,3%,-1,11,·,
CCCCN(C(=O)c1cc2ccccc2o1)c1c(N)n(CCC)c(=O)[nH]c1=O,-2.3,-1%,-3,0,-4,
O=C(c1nc2ncccn2n1)N1CCN(c2ccccc2)CC1,1.0,-9%,0,7,-10,
Nc1ccc2oc(-c3cc(Br)ccc3Cl)nc2c1,-0.6,19µM*,-5,-12,-36,
CCc1ccc(CN2CCC(N3CCC(C(=O)N4CCCC4)CC3)CC2)o1,1.8,·,0,·,·,
CCn1cc(C(=O)O)c(=O)c2cc(F)c(N3CCN(S(=O)(=O)c4ccc(Br)cc4)CC3)cc21,4.2,13%,-4,-5,-25,
CCC1CCC(C(=O)NC(C(=O)Nc2ccc3c(c2)OCCO3)C(C)C)CC1 (configuration not stated),-1.2,-12%,20,-15,7,
Cc1ccc(S(=O)(=O)NCc2ccc(C(=O)N3CCN(c4ccccc4)CC3)cc2)cc1,-3.3,·,2,·,·,
Cc1ccc(C)c(S(=O)(=O)N2C(=S)NC(=O)C2C(C)C)c1 (configuration not stated),-2.6,-6%,67,13,-18,
CC1CCCCC1NC(=O)Cn1nc(-c2ccccc2)ccc1=O (configuration not stated),-1.4,-3%,2,-4,-21,
CC(=O)Nc1ccc(Oc2ccc3nc(C)[nH]c3c2)cc1,-0.8,-5%,-6,17,-14,
Cc1[nH]c2ccccc2c1C(=O)CN1CCN(C/C=C/c2ccccc2)CC1,4.8,5%,33,1,-30,
O=C(NC(n1ccc(=O)[nH]c1=O)C(Cl)(Cl)Cl)C12CC3CC(CC(C3)C1)C2 (configuration not stated),2.5,11%,1,·,·,
CC(C)C(=O)Nc1ccc([N+](=O)[O-])cc1Br,-0.4,-3%,-6,-9,-34,
COc1cccc(C2c3[nH]c4ccccc4c3C[C@H]3C(=O)N(C)CC(=O)N23)c1 (some centres not stated),1.7,·,-5,·,·,
COC(=O)c1cc(NS(=O)(=O)c2cccc(Cl)c2)ccc1N1CCOCC1,-3.3,3%,-7,·,·,
Cc1cc([N+](=O)[O-])nn1CCCC(=O)NCc1ccccc1,-2.3,-7%,4,0,-30,
C=CCNC(=O)Nc1ccc(Br)cc1Cl,-0.4,2%,-1,3,·,
CC1=CCC2C(=O)N(Cc3ccccc3)C(=O)C2C1 (configuration not stated),-2.3,-6%,1,-1,-13,
O=C(c1ccc(Br)cc1)N1CCCc2ccccc21,4.3,·,-4,·,·,
Cc1ccc(C(OCC(C)(C)C[N+](C)(C)C)c2ccccc2)cc1 (configuration not stated),2.7,0%,-2,-1,·,
COc1ccc(-c2nnc(NC(=O)C(C)C)s2)c(OC)c1,0.0,·,-4,2,-43,Arbovirus inh repeat=-8
O=C(O)C/C(=C\c1ccc(N2CCOCC2)c([N+](=O)[O-])c1)c1nc2ccccc2s1,6.4,-12%,-4,·,·,
COc1ccc(NC(=O)c2ccccc2O)c(OC)c1,3.4,17%,37,4,-8,
O=[N+]([O-])c1nn(-c2ccc3c(c2)OCCO3)n(O)c1=NC1CCCC1,-0.7,7%,3,-15,-9,
Cc1nc(N=Nc2ccc(O)cc2)n[nH]1,-9.1,3%,-3,·,·,
COc1ccc(-c2nnc(SCC(=O)Nc3cc(C)on3)n2C)cc1OC,-4.0,-4%,-5,2,10,
Cn1c(=O)c(N)c2c3c(c(Br)ccc31)C(=O)c1ccccc1-2,-8.4,12%,26,·,·,
CN(C)C(=O)CSc1nnc([C@H](Cc2c[nH]c3ccccc23)NC(=O)OC(C)(C)C)o1,-13,-4%,-13,7,·,
O=C(OCc1ccc(COC(=O)c2ccc(O)cc2)cc1)c1ccc(O)cc1,6.4,·,-1,·,·,
O=C(CCCN1C(=O)/C(=C/c2cccs2)SC1=S)Nc1ccc(O)c(C(=O)O)c1,·,5%,·,6,·,
COc1ccc(C)cc1NC(=O)c1nnn(Cc2cc(C)ccc2C)c1N,-1.0,2%,10,-24,-13,
O=C(O)Cc1cn(Cc2ccc(F)cc2)c2ccccc12,1.9,-12%,0,25,·,
CCn1nc(C)cc1C(=O)NC1CCCc2c1cnn2-c1ccc(C)c(C)c1 (configuration not stated),2.6,·,1,·,·,
Fc1ccccc1Cn1cnc(NC(=S)NCCc2ccccc2)n1,0.1,-2%,3,-19,·,
CC(Oc1ccc2c(=O)c(-c3ccc(Cl)cc3)c(C(F)(F)F)oc2c1)C(=O)O (configuration not stated),1.8,2%,-8,·,·,
COc1ccc(/C=C2\Sc3ccc(C(=O)N4CCN(Cc5ccccc5)CC4)cc3N(C)C2=O)cc1OC,0.1,·,93,·,·,
Cc1ccnc(NS(=O)(=O)c2ccc(N=CC3=C(O)CC(C)(C)CC3=O)cc2)n1,0.9,4%,3,4,-39,
Cc1cccc(C)c1NC(=O)c1ccc(CN2CCc3ccccc3C2)cc1,-2.8,·,68,9,-1,
O=S(=O)(c1cc(Cl)ccc1Cl)N1CCN(Cc2ccco2)CC1,1.4,·,-6,·,·,
CC1CCN(c2ccc(C(=O)NCc3ccc4c(c3)OCO4)cc2[N+](=O)[O-])CC1,6.9,39%,59,-4,-12,
O=C1CC(c2ccc(S(=O)(=O)NC3CC3)cc2)CN1 (configuration not stated),-2.2,12%,1,17,-43,Arbovirus inh repeat=4
CC(C)(C)NS(=O)(=O)c1cc(C(=O)O)ccc1Cl,1.0,-11%,2,12,·,
CCOC(=O)c1c(C)nc2sc3c(=O)n(-c4ccc(OC)cc4)nnc3c2c1-c1ccc(OC)cc1,4.5,7%,1,11,-39,
CCN1CCN(Cc2nc3c(c(=O)n(C)c(=O)n3C)n2CCc2ccccc2)CC1,·,-6%,·,3,-19,
O=C(NCCCNC(=O)c1ccco1)c1ccco1,0.5,8%,-9,5,-5,Arbovirus inh repeat=3
Nc1nonc1-n1nnc(C(=O)N/N=C/c2ccccn2)c1CNc1ccccc1,-2.3,·,3,·,·,
CC(C)CCN(C(=O)C1=COCCO1)c1c(N)n(Cc2ccccc2)c(=O)[nH]c1=O,-1.7,·,0,·,·,

# The listing continues.
SMILES,RecA splice inh,Mtb H37Rv,Mtb betalactam,Arbovirus inh,YopH inh,others
NC(=O)c1c(NC(=O)c2ccccc2Cl)sc2c1CCC2,-0.4,·,8,·,·,
CCC(=O)N1CCCc2cc(S(=O)(=O)CCC(=O)Nc3ccccc3C)ccc21,-0.1,·,-2,·,·,
O=C(NNC(=S)NC(=O)c1cn(-c2ccccc2)nc1-c1ccccc1)c1ccncc1,0.5,?,97,-18,·,
COC(=O)c1ccc(CNC(=O)COC(=O)CCC2CCCC2)cc1,1.9,-8%,0,-5,-28,
O=C(CSCc1ccc(Cl)cc1)N/N=C/c1ccccc1,0.0,2%,49,9,-23,
COc1cccc(C(=O)CSc2nnc(CNS(C)(=O)=O)n2-c2ccc(C)cc2)c1,·,3%,·,-4,-14,
C=CCn1c2ccccc2c2nnc(SCc3[nH]c(=O)[nH]c3C(=O)CCCCC(=O)OCC)nc21,0.4,3%,-7,-6,12,
CCN(CC)CCn1c(=N)n(CC(O)c2ccc(OC)c(OC)c2)c2ccccc21 (configuration not stated),·,1%,6,-2,·,
CC(=O)c1ccc(NC(=O)C(C)OC(=O)C2CC(=O)N(c3ccc4c(c3)OCCO4)C2)cc1 (configuration not stated),4.3,·,-15,·,·,
O=C(c1cccc(Cl)c1)N1CCC2(CC1)NCCc1[nH]cnc12,-1.5,·,-6,·,·,
O=C(c1ccc(Cl)cc1Cl)N1CCN(c2ccc(N3CCOCC3)nn2)CC1,1.5,·,-10,·,·,
Cc1nnc(SCC(=O)Nc2ncc3c(n2)CC(c2ccccc2)CC3=O)s1 (configuration not stated),0.2,0%,4,9,-11,
CCOC(=O)N1CCC(NC(=O)CSc2cc(=O)n(CC)c3ccccc23)CC1,-0.4,3%,2,-6,-24,
CCCCNC(=O)c1onc(CSc2cccc(C)c2)c1C(=O)O,1.5,0%,8,2,-40,
O=C(c1ccco1)N1CCN(C(=O)c2cnn3c2NC(c2cccs2)CC3C(F)(F)F)CC1 (configuration not stated),2.4,-4%,3,-3,1,
CCSc1ccc(-c2nn(-c3ccccc3)cc2/C=C(/C#N)C(=O)NCCCOC)cc1,·,-5%,-8,-12,-25,
O=C1c2ccccc2C(=O)N1SC1CCCCC1,-1.2,2%,30,-1,-13,
CCCCN(C(=O)CCC(=O)Nc1cc(C)on1)C(C(=O)NC(C)(C)CC)c1cccc(OC)c1OC (configuration not stated),0.3,2%,2,·,·,
CCOc1ccc(NC(=S)N2CCC(NC(=O)C3CCCCC3)CC2)cc1,-3.0,·,-1,·,·,
CC(C)N1CCC2(CC1)N=C(c1ccc3c(c1)OCO3)CC(c1cc(Cl)ccc1O)N2 (configuration not stated),17,8.3µM*,100,-22,-3,
O=C(Nc1nnc(-c2cccnc2)s1)c1cccs1,1.2,-12%,-11,·,·,
Cn1c(CSCCOc2ccccc2)n[nH]c1=S,1.4,3%,-4,·,·,
O=C(NC1CC1)C1CCN(C2CCN(C(=O)CCOc3ccccc3)CC2)CC1,-0.6,-1%,-1,4,·,

# Screening results: PubChem BioAssay, several laboratories
